Bioassay records as filed in PubChem BioAssay.
Calb biofilm kill: clotrimazole potentiators killing C. albicans biofilm, primary screen, 4-compound mixtures | 120,000 tested, 0.02% active | AID 1242, 2008 | inhibition, % at 7.6 µM | C. albicans biofilm persisters + clotrimazole, fluorescence viability; primary screen in compound mixtures of four per well;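 active = inhibition above 30.3% in the primary screen of four-compound pools, then above 30% when the compound was retested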;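 also: compounds exposed to preformed 24 h biofilms for 48 h; the number belongs to the whole pool; some results filed as inactive read as strong as hits; inactives centre near 12; 0% = biofilm with clotrimazole alone and 100% = kill control; retested singly at about 60 µM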
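Test system: C. albicans CAF4-2 wild-type biofilms; buffer or medium: RPMI/MOPS medium, pH 7.0; schedule: 24 h biofilm formation, then 48 h compound exposure, 37 °C; detection: Alamar Blue fluorescence; measure: percent inhibition of biofilm viability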
Starred values were filed as active, the others as inactive. Only part of the results is shown (hit frequency here may not be typical).

#	compound	Calb biofilm kill
1	COc1cccc(OC)c1C(=O)Nn1c(-c2cccs2)nc2ccccc2c1=O	11
2	CC12CN3CC(C)(CN(C1)C3c1ccc3c(c1)OCO3)C2O (stereo unspecified)	1
3	CC12CCC(C(=O)N(CC3CO3)C1=O)C2(C)C (stereo unspecified)	18
4	O=C(Nc1ccccc1OC(F)(F)F)c1ccc([N+](=O)[O-])cc1	22
5	Cc1cccc2sc(NC(=O)C3CCN(S(=O)(=O)c4cc([N+](=O)[O-])ccc4Cl)CC3)nc12	7
6	COc1ccc2c(c1)O/C(=C\c1ccco1)C2=O	9
7	Cc1cc(C)cc(C(=O)NCCCc2ccccc2)c1	15
8	COC(=O)c1cnn(-c2ccc(F)cc2F)c1/C=N/NC(=S)NC(C)(C)C	20
9	O=C(CNC(=O)c1ccccc1F)OCc1csc(-c2ccccc2)n1	3
10	Cc1cc(C)c2sc(C)[n+](CCCS(=O)(=O)[O-])c2c1	20
11	Cc1cc(=O)n2[nH]c(N)c(N=Nc3ccccc3)c2n1	14
12	CC(C)C(c1nnnn1C(C)(C)C)N1CCC(Cc2ccccc2)CC1 (stereo unspecified)	9
13	CN1CCN(C(=O)CCC(=O)O)CC1	15
14	O=C(COC(=O)COc1ccccc1[N+](=O)[O-])Nc1cccc(Br)c1	2
15	O=C1NC(=S)CN1c1ccccc1	15
16	CCC(C)N1CCN(S(=O)(=O)c2ccc(NC(C)=O)cc2)CC1 (stereo unspecified)	21
17	CCOC(=O)C1=C(N)N2C(=O)C(C)SC2=C(C(=O)OCC)C1c1cc(OC)c(OC)c(OC)c1 (stereo unspecified)	16
18	COc1ccccc1OCCNC(=O)/C=C/c1ccc([N+](=O)[O-])cc1	14
19	Cc1ccc(CN2CC(C(=O)Nc3cccc(S(=O)(=O)N4CCCCC4)c3)CC2=O)cc1 (stereo unspecified)	6
20	O=C(c1ccccc1Cl)N(Cc1ccc(Br)cc1)N1C(=O)CCCC1=O	4
21	CN(c1nc2nonc2nc1NC1CC1)C1CCOC1 (stereo unspecified)	12
22	COc1ccc(/C=N\NC(=O)c2cc(O)c(O)c(O)c2)cc1CN1CCN(c2ccc(F)cc2)CC1	18
23	Cc1nn(-c2cc(C(F)(F)F)ccn2)c(=O)o1	16
24	CNC(=O)/C(C#N)=C1/SC(Cc2ccc(F)cc2)C(=O)N1c1ccccc1 (stereo unspecified)	22
25	N[C@@H](Cc1ccc(O)cc1)c1nnc([C@H](CCC(=O)O)NC(=O)C2CCNCC2)o1	20
26	CCCCNC(=O)CCn1c(=O)c2ccccc2n(Cc2ccc(Cl)cc2)c1=O	2
27	Cc1[nH]c2ccc3ncccc3c2c1C	0
28	Cc1ccc(NC(=S)N2CCCN(Cc3ccc(F)cc3)C2)c(C)c1	17
29	CCOC(=O)C(NC(=O)c1ccccc1)(Nc1nnc(C)s1)C(F)(F)F (stereo unspecified)	19
30	OCCCNCc1ccc(-c2ccccc2)cc1	8
31	Cc1cccc(NC(=S)N(CCN(C)C)C(C)c2cccnc2)c1 (stereo unspecified)	6
32	Cc1cc(C(=O)CN2C(=O)C(=O)N(Cc3ccccc3)C2=O)c(C)n1-c1ccccc1F	3
33	O=[N+]([O-])c1cnc(Sc2ccncn2)s1	24
34	O=C(c1ccc(S(=O)(=O)NCc2ccco2)cc1)N1CCN(Cc2ccc3c(c2)OCO3)CC1	13
35	CCOC(=O)c1c(NC(=O)COC(=O)C2CC2C)sc(C)c1C (stereo unspecified)	9
36	Cc1cc(Cl)ccc1OC(C)C(=O)NCCc1ccc2c(c1)OCCO2 (stereo unspecified)	13
37	O=C(O)/C=C/C(=O)Nc1ccc(NC(=O)c2ccccc2)c(Cl)c1	12
38	Clc1ccc(Cn2c(/C=C/c3ccco3)nc3ccccc32)cc1	-3
39	C(=N\Nc1nc2ccccc2[nH]1)/c1ccc2ncccc2c1	27
40	Cc1cc(-c2nc(-c3ccc(C(C)(C)C)cc3)no2)no1	12
41	O=S(=O)(c1ccc(Cl)c(C(F)(F)F)c1)N1CCN(c2ccccn2)CC1	10
42	Cc1nc(CCNC(=O)c2cc(COc3ccc(F)cc3Cl)on2)sc1C	6
43	COc1ccc(CCN2CN(S(=O)(=O)c3ccc(C)cc3)c3nc4ccccc4nc32)cc1OC	12
44	CS(=O)(=O)N1N=C(c2cccs2)CC1c1ccccc1O (stereo unspecified)	19
45	O=C(Nc1ccc2c(c1)OCO2)c1cc(-c2ccncc2)nc2ccccc12	1
46	NC(=O)C1(c2ccccc2)CCCN1C(=O)c1ccccc1Br (stereo unspecified)	17
47	Cn1ccnc1Sc1ccccc1[N+](=O)[O-]	3
48	COc1ccc(-n2c(C)cc(C(=O)CN3C(=O)c4ccccc4C3=O)c2C)cc1	12
49	COc1ccc(C2CC(=O)N(C)c3ccccc3S2)cc1 (stereo unspecified)	14
50	COc1cc(/C=C2/SC(=S)N(CC(=O)O)C2=O)ccc1OC(=O)c1cccs1	14
51	Cc1ccc(-c2nnn(CC(=O)N(c3ccccc3)C(C(=O)NCC3CCCO3)c3cccs3)n2)o1 (stereo unspecified)	-7
52	CN1CCSc2ccc(C(=O)Nc3ccc(Cl)cc3)cc21	26
53	CCNC(=S)N1CCN(c2ccccc2OCC)CC1	4
54	Cc1cccc(NC(=S)NC2CC3CCCC(C2)N3Cc2ccco2)c1 (stereo unspecified)	12
55	COc1ccc(N(CC(=O)Nc2nccs2)S(=O)(=O)c2c(C)[nH]c(=O)[nH]c2=O)cc1	-1
56	C/C=C\C(=O)Nc1cccc(C2=NOC3(C2)C[C@@H](C(N)=O)N(C(=O)c2ccc(OC)cc2)C3)c1 (stereo partly specified)	17

Other results
#	compound	Calb biofilm kill
57	CN1/C(=C\C(=S)NC(=O)c2ccc([N+](=O)[O-])cc2)C(C)(C)c2ccccc21	6
58	S=c1[nH]nc(-c2cc(-c3ccsc3)n[nH]2)n1-c1ccccc1	17
59	CSc1ccccc1NC(=O)c1ccccn1	-8
60	COc1ccc([N+](=O)[O-])cc1N(CC(=O)NC(C(C)C)C(C)C)S(C)(=O)=O	-2
61	C#CCO[C@@H]1C[C@H](n2cnc3c(NC(=O)c4ccccc4)ncnc32)O[C@@H]1CO	17
62	Cc1csc(NC(=O)Nc2ccccc2[N+](=O)[O-])n1	14
63	CCn1nc(C(=O)OCC(=O)Nc2ncc(Cl)c(C)c2Cl)c2ccccc2c1=O	5
64	O=C(NC(Nc1ccc(F)cc1)(C(F)(F)F)C(F)(F)F)c1cccnc1	7
65	Cc1cc(C)c(C#N)c(SCc2cn3c(C)cccc3n2)n1	9
66	Cc1ccc(NC(=O)CNC2CCS(=O)(=O)C2)cc1C (stereo unspecified)	16
67	NS(=O)(=O)c1ccc(CNC(=O)c2ccc(S(=O)(=O)C(F)F)cc2)cc1	9
68	Cc1ccccc1OCC(=O)OCn1nnc2ccccc2c1=O	10
69	C=CCN(c1ccccc1)S(=O)(=O)c1ccc(Cl)c(C(=O)OCC(=O)N(C)C2CCS(=O)(=O)C2)c1 (stereo unspecified)	-6
70	Cc1nn(Cc2ccc(Cl)cc2Cl)c(C)c1NC(=O)C1C2CCC(O2)C1C(=O)O (stereo unspecified)	7
71	Cn1ncc(N=Cc2ccc([N+](=O)[O-])cc2)c1C(=O)Nc1ccccc1	14
72	N=c1n(CCc2ccccc2)c2ccccc2n1Cc1ccccc1F	20
73	CSC(SC)=C(C(C)=O)C(=O)c1ccc(C)cc1	17
74	CCC(NC(=O)c1ccccc1NC(=O)c1ccccc1)C(=O)OC (stereo unspecified)	17
75	COc1ccc(C2CC(c3ccc([N+](=O)[O-])cc3)=NN2C(=O)c2ccccc2)cc1OC (stereo unspecified)	14
76	CC(=O)Nc1c(C)nn(-c2ccc([N+](=O)[O-])cc2)c1C	3
77	CCCN(CC(=O)Nc1ccccc1OC)C(=O)c1cc2ccccc2o1	10
78	COc1cccc(C(=O)c2c[nH]c(C(=O)NCCCN3CCOCC3)c2)c1	18
79	c1ccc(-n2cnc3ccccc32)cc1	7
80	O=C(NC(N1CCOCC1)C(Cl)(Cl)Cl)c1ccc(F)cc1 (stereo unspecified)	6
81	COCCNC(=O)C(=O)N/N=C(\C)CC(=O)Nc1cccc(C(F)(F)F)c1	23
82	COc1ccc(NC(=O)c2cccc(C(=O)Nc3ccc(OC)cc3)n2)cc1	16
83	CCOC(=O)c1ccc(NC(=O)Nc2ccc(Cl)cn2)cc1	20
84	COc1ccc(NC(=O)CCc2nc3ccccc3s2)c(OC)c1	11
85	CC1CCN(c2nnc(-c3cccs3)c3ccccc23)CC1	6
86	CN(/C=C/C(=C/C=[N+](C)c1ccccc1)OCCCS(=O)(=O)[O-])c1ccccc1	7
87	CC(/C=N/Nc1ncc(C)c(=O)[nH]1)=C\c1ccccc1	2
88	O=C(NC(=S)N1CCc2ccccc21)C1CCC1	7
89	O=[N+]([O-])c1cc(S(=O)(=O)N2CCCC2)ccc1NN=C1CCCC1	17
90	Cc1cccc(C)c1OCCOC(=O)c1n[nH]c2ccccc12	-10
91	CC1(C)CC(NCc2ccncc2)CC(C)(C)N1	13
92	COc1ccc(NC(C)=O)cc1NC(C)C(=O)Nc1cc(C(F)(F)F)ccc1N1CCOCC1 (stereo unspecified)	20
93	Cc1cccc(CSc2nc3ccncc3n2CC(=O)Nc2ccc(C)c(C)c2)c1	2
94	COc1ccc(C(=O)N=c2sc3ccccc3n2C)cc1OC	13
95	O=C(c1ccco1)N1CCN(c2nc(C3CC3)nc3c2nnn3Cc2ccccc2Cl)CC1	2
96	Nc1nonc1-n1nnc(C(=O)N/N=C/c2cccc(Cl)c2)c1CSc1ccc(Cl)cc1	12
97	COc1nc(N2CCOCC2)nc(C)c1[N+](=O)[O-]	9
98	Cc1noc(C)c1S(=O)(=O)N1CCC(C(=O)c2ccccc2)CC1	5
99	CCC(C)[C@H]1CN=C(N)N1CCCc1cc(OC)c(OC)c(OC)c1 (stereo partly specified)	19
100	COc1ccc(NC2CC(=O)N(c3cc([N+](=O)[O-])ccc3C)C2=O)cc1 (stereo unspecified)	12
101	Cc1cc(C)c(C#N)c(SCCS(=O)(=O)c2ccc(Cl)cc2)n1	3
102	CC(C(Sc1ccccc1N)c1ccccc1)[N+](=O)[O-] (stereo unspecified)	11
103	Cc1cccnc1NC(=O)c1ccccc1-c1ccccc1C(=O)Nc1ncccc1C	10
104	CCOC(=O)C1=C(C)Nc2sc(C(=O)c3ccc(C)cc3)c(N)c2C1c1ccc(C(=O)OC)cc1 (stereo unspecified)	17
105	COc1ccc(Nc2nc(C(=O)N(CCO)Cc3ccccc3)cs2)cc1	12
106	COc1cccc(C2(O)CC(C(F)(F)F)=NN2C(=O)c2ccccn2)c1 (stereo unspecified)	28
107	CNC(=S)NNC(=O)Cc1ccc(O)cc1	14
108	O=C(C1CCN(CC2CC=CCC2)CC1)N(CCc1ccccc1)Cc1ccccc1 (stereo unspecified)	9
109	C/C(=C(/NC(=O)c1ccccc1)C(=O)O)c1ccco1	11
110	CN(C)CCCNC(=O)c1cc(C(=O)Cc2ccccc2)c[nH]1	13
111	N#C/C(=C\c1cn(Cc2ccc(C#N)cc2)c2ccccc12)C(=O)NCc1cccs1	15
112	CC(C)(C)Nc1scc(-c2ccccc2)[n+]1-c1ccccc1	-8

The list continues.
#	compound	Calb biofilm kill
113	COc1ccc(S(=O)(=O)N2CCCOC2CNC(=O)C(=O)NCCCn2ccnc2)cc1 (stereo unspecified)	0
114	Cc1cc(C(=O)N/N=C/c2c(C)[nH]c3ccccc23)n[nH]1	23
115	CCOc1ccc(N=Nc2c(N)[nH][nH]c2=O)cc1	18
116	CCOC(=O)CSc1n[nH]c(NC(=O)NC(C)C)n1	14

From entry 97 as far as 113, as listed above:
#	compound	Calb biofilm kill
97	COc1nc(N2CCOCC2)nc(C)c1[N+](=O)[O-]	9
98	Cc1noc(C)c1S(=O)(=O)N1CCC(C(=O)c2ccccc2)CC1	5
99	CCC(C)[C@H]1CN=C(N)N1CCCc1cc(OC)c(OC)c(OC)c1 (stereo partly specified)	19
100	COc1ccc(NC2CC(=O)N(c3cc([N+](=O)[O-])ccc3C)C2=O)cc1 (stereo unspecified)	12
101	Cc1cc(C)c(C#N)c(SCCS(=O)(=O)c2ccc(Cl)cc2)n1	3
102	CC(C(Sc1ccccc1N)c1ccccc1)[N+](=O)[O-] (stereo unspecified)	11
103	Cc1cccnc1NC(=O)c1ccccc1-c1ccccc1C(=O)Nc1ncccc1C	10
104	CCOC(=O)C1=C(C)Nc2sc(C(=O)c3ccc(C)cc3)c(N)c2C1c1ccc(C(=O)OC)cc1 (stereo unspecified)	17
105	COc1ccc(Nc2nc(C(=O)N(CCO)Cc3ccccc3)cs2)cc1	12
106	COc1cccc(C2(O)CC(C(F)(F)F)=NN2C(=O)c2ccccn2)c1 (stereo unspecified)	28
107	CNC(=S)NNC(=O)Cc1ccc(O)cc1	14
108	O=C(C1CCN(CC2CC=CCC2)CC1)N(CCc1ccccc1)Cc1ccccc1 (stereo unspecified)	9
109	C/C(=C(/NC(=O)c1ccccc1)C(=O)O)c1ccco1	11
110	CN(C)CCCNC(=O)c1cc(C(=O)Cc2ccccc2)c[nH]1	13
111	N#C/C(=C\c1cn(Cc2ccc(C#N)cc2)c2ccccc12)C(=O)NCc1cccs1	15
112	CC(C)(C)Nc1scc(-c2ccccc2)[n+]1-c1ccccc1	-8
113	COc1ccc(S(=O)(=O)N2CCCOC2CNC(=O)C(=O)NCCCn2ccnc2)cc1 (stereo unspecified)	0
